Screening data deposited in PubChem by several laboratories.
Mtb bLac sens – beta-lactam sensitization of Mtb H37Rv. AID 434955. M. tuberculosis H37Rv growth with meropenem, percent inhibition; hits of this screen are not shown here. inhibition, % at 25 µM. hit rate 0.27% among 330,000;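 active = about 74% or more and at least 40 points above the plate without the antibiotic, then above 30% in a dose series; inconclusive = first-round hits that could not be retested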;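 note: growth measured after seven days incubation then overnight dye step; 0% = bacteria only wells and 100% = bacteria with antibiotic; twin plates without the antibiotic show which effects depend on it; some results filed as inactive read as strong as hits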
Mtb H37Rv – M. tuberculosis H37Rv growth inhibitors, H37Rv strain (AID 1626); M. tuberculosis H37Rv growth inhibition; higher % means a stronger effect; inhibition, % at 10 µM, or IC50 in µM where a hit was titrated; hit rate 0.95% among 220,000;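 active = confirmed in a dose series; inconclusive = inhibition above 80% but not taken into the dose series; inactive = below 80% or under 30% at every dose of the series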;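 note: bacteria incubated seven days before Alamar blue readout; 0% = bacteria only wells and 100% = bacteria with antibiotic wells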
YopH inh – blocks Yersinia enterocolitica YopH tyrosine phosphatase; fluorescence Ex485/Em525; inhibition, %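 (about 10 µM by stock and volumes)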; hit rate 0.16% among 140,000; AID 898;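 active = inhibition of 50% or more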;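 note: controls were vehicle for no effect and minimum signal wells for full effect; inactives centre near -20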
Arbovirus inh – blocks arbovirus infection | arbovirus infection cell-based antiviral screen | hit rate 0.37% among 200,000 | inhibition, % at 10 µM;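 active = inhibition from about 30%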;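 note: bluetongue infection of BSR cells; cell survival read as ATP light after 72 h; 0% = infected wells without compound and 100% = uninfected wells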
RecA splice inh – blocks M. tuberculosis RecA intein splicing. P9WHJ3. cell-free RecA intein splicing, fluorescence. inhibition, %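 (about 9 µM by stock and volumes)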. hit rate 0.75% among 290,000; in the data active = inhibition above about 30%; inconclusive = no clear call, values can overlap the other calls;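 note: 0% = vehicle wells and 100% = reference inhibitor control wells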
Target sequence (P9WHJ3 whole entry, looked up, canonical isoform): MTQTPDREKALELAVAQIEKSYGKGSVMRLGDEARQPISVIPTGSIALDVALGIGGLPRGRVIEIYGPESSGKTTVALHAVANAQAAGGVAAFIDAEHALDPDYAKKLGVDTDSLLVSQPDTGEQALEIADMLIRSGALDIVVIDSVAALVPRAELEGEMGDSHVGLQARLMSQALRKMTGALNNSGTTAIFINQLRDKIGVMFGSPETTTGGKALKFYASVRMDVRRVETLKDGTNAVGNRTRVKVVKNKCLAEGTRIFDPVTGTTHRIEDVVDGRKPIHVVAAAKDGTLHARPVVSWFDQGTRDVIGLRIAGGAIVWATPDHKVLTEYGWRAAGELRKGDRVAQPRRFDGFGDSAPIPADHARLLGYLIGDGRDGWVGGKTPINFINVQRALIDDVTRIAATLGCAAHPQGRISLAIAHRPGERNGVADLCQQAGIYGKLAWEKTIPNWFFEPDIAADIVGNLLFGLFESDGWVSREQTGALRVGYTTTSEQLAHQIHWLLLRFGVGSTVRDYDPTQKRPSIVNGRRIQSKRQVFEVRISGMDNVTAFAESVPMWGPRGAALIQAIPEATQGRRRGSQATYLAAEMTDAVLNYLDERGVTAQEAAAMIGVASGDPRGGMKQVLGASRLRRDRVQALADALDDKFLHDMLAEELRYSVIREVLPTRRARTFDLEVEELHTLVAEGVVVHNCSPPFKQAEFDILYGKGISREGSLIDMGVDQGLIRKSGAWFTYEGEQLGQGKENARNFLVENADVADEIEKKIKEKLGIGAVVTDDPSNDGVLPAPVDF
Arbovirus inh repeat – recorded beside Arbovirus inh, whose call it bears; inhibition, %; measured here: 10K subset replicate screen; many hits read low in the repeat;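 first of two repeat runs on a subset; 0% = infected and 100% = uninfected wells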
Active calls of the source: *; ? = inconclusive; / = no result given. This is a subset; the hit share may differ from the screen's.

SMILES	Mtb bLac sens	Mtb H37Rv	YopH inh	Arbovirus inh	RecA splice inh	others
COC(=O)c1ccccc1S(=O)(=O)N(Cc1ccco1)Cc1cc2cc(OC)ccc2[nH]c1=O	-11	-8%	-29	1	-2.5
CCN(CC)CCCNC(=O)CCC(=O)NNc1nc2ccccc2c2nc(C)nn12	-1	-6%	/	6	-4.4
C=CCNC(=S)Nc1ccc(Cl)cc1F	-5	-3%	/	6	0.6
NS(=O)(=O)c1ccc(CNC(=O)c2ccc3ccccc3n2)cc1	0	/	/	/	-0.8
O=C1CC(C(=O)Nc2ccccc2)S/C(=N\N=C\c2ccco2)N1 (centres undefined)	-8	-11%	-13	-15	-0.3
Cc1cccc(NC(=O)CSCc2cc(=O)n3c(C)csc3n2)c1C	5	/	/	/	-7.2
Cc1ccccc1-n1ncc2c1CC(C)(C)CC2NC(=O)CCCN1CCCC1=O (centres undefined)	-3	/	/	/	-1.0
CC1CCCC(NC(=O)c2ccc3c(=O)n(CC4CCCO4)c(=O)[nH]c3c2)C1C (centres undefined)	-9	-3%	-40	0	-2.8
COc1ccc(/C=C2\Sc3ccc(C(=O)NCc4cccnc4)cc3N(C)C2=O)cc1OC	97	13µM*	/	-23	-0.9
COCCNC(=S)N(CCc1c(C)[nH]c2ccc(C)cc12)Cc1ccco1	6	6%	/	-3	-1.7
NC(=O)[C@H]1CC2(CC(c3cccc(NC(=O)COc4ccc(Cl)cc4)c3)=NO2)CN1C(=O)CC(c1ccccc1)c1ccccc1 (some centres undefined)	68	13%	/	/	8.3
CCOC(=O)c1nnn(-c2nonc2N)c1CN1CCc2ccccc2C1	5	-5%	-6	7	4.8
O=C(Nc1ccc(F)c(F)c1)c1oc2ccccc2c1NC(=O)C1CCCO1 (centres undefined)	-5	-6%	/	7	-2.9
CC1CCN(C(=O)c2ccc(NS(C)(=O)=O)cc2)CC1	6	0%	4	17	0.6
CCOC(=O)C1(Cc2ccc(OC)cc2)CCN(C(=O)C2=CCCC2)CC1	-8	4%	/	0	0.3
N#CCCN1CCNCC1	-10	-3%	-12	13	0.1
CC(C)(C)C1CCc2[nH]c3ccccc3c(=O)c2C1 (centres undefined)	-4	4%	-2	-9	1.8
O=C(CSc1nc(-c2ccc(F)cc2)nc2c1Cc1ccccc1O2)Nc1ccc(C(=O)O)cc1	/	-4%	/	32*	/
CC(C)C(=O)NCC(c1cccs1)S(=O)(=O)c1ccc(F)cc1 (centres undefined)	-9	/	/	/	-3.6
S=C(Nc1ccccc1)N1CCn2c1nc1ccccc12	10	-12%	-7	3	0.4
Cc1c(Cl)cccc1NC(=O)Nc1cccnc1	-2	/	/	/	3.2
O=[N+]([O-])c1ccc(O)c(Nc2ncnc3ccccc23)c1	2	-7%	/	6	-1.3
Cc1ccc2nc(N(CCCN(C)C)C(=O)c3ccc(S(=O)(=O)N4CCOCC4)cc3)sc2c1	-19	/	/	/	-3.2
Nc1c(C(=O)NCc2ccccc2)nnn1Cc1cccc(Cl)c1	-5	1%	-30	-22	-1.1
COc1cc(SC)ccc1C(=O)Nc1cccc(S(=O)(=O)NC2=NCCCCC2)c1	4	/	/	/	0.1
CC1=CC(C)[C@@H]2COC(c3ccc(O)cc3)[C@H]1C2C (some centres undefined)	0	/	/	/	0.1
O=c1c2ccccc2oc2nc3n(c(=O)c12)CCCS3	100	?	-33	18	0.3
CCOC(=O)C(Oc1ccc(=O)n(-c2ccccc2)n1)C(C)=O (centres undefined)	-5	-5%	-1	13	-1.4
CCOc1ccc(OCCCC(=O)NC2=NCCS2)cc1	0	-2%	-7	-4	0.0
Cc1nc(-c2ccc(-n3nncc3-c3ccco3)cc2)cs1	-1	12%	/	/	-4.0
Cc1c(C(=O)O)oc2ccc3c(c12)C(O)CC(C)(C)O3 (centres undefined)	3	/	/	/	-2.1
COc1ccc(-n2nc(C(=O)NCC(=O)N3CCOCC3)c3ccccc3c2=O)cc1Cl	6	/	/	/	0.5
COC(=O)C1=C(C)NC(=O)CC1c1cccc(OC)c1OC (centres undefined)	5	-7%	-28	11	0.3
COc1cc(NS(=O)(=O)c2ccc(NC(=O)COc3ccc(C)cc3)cc2)nc(OC)n1	9	-6%	-38	12	-1.9	Arbovirus inh repeat=6
CC(C)C(=O)NNc1ccccc1	91	?	-23	-33	2.4
COc1ccc(CNC(=O)Cn2nc(C(F)(F)F)c3c2CCC3)cc1	-4	-17%	13	-10	-0.7
CN(C)CC(C)(C)CNS(=O)(=O)c1ccc(Cl)s1	3	3%	/	-1	1.2
CCSc1ncnc2c(C#N)c3n(c12)CCCCC3	-4	0%	-50	4	0.4
NC(=S)N/N=C1\c2ccccc2-c2c(C(=O)O)cccc21	-1	/	/	/	0.6
Cc1ccc(C(=O)Cn2nnc3ccccc32)cc1	17	10%	-27	-1	-1.2
CN(CC(=O)NCc1cccs1)S(=O)(=O)c1cccc2nsnc12	-4	-5%	-52	10	-0.5
COc1ccccc1N1CCN(CC(O)COc2ccc3c(c2)CCC3)CC1 (centres undefined)	-10	13%	-16	3	-2.2
O=C1c2ccccc2C(=O)N1CN(C(=O)COc1ccc(Cl)cc1Cl)c1cccc(F)c1	3	0%	-13	-12	-2.0
COc1cc(NC(=O)c2ccc3c(c2)OCO3)ccc1NC(=O)C(C)C	8	-3%	2	-15	6.1
O=C(CN1CCN(c2ncccn2)CC1)N1CCCC1	0	-7%	/	4	-6.8
CCC(C)c1ccccc1N1CC(C(=O)Nc2ccccc2N2CCCC2)CC1=O (centres undefined)	-15	/	/	/	-0.3
O=C(NC1CC2CCCC(C1)N2Cc1ccco1)NC12CC3CC(CC(C3)C1)C2 (centres undefined)	-5	-3%	-43	-1	0.2
COc1cc(OC)cc(C(=O)NC2CCCN(Cc3ccc(Cl)cc3)C2)c1 (centres undefined)	6	/	/	/	2.4
CCC(C)N1CCN(C(=O)COc2ccc3ccccc3c2)CC1 (centres undefined)	0	/	/	/	0.6
O=C(CCN1C(=O)c2ccccc2S1(=O)=O)Nc1ccc(F)c([N+](=O)[O-])c1	-9	/	/	/	1.0
CCNC(=S)N(Cc1ccc2c(c1)OCO2)C1CC(=O)N(c2ccc(F)cc2)C1=O (centres undefined)	-7	-6%	-39	-9	2.2
CCCCCCn1c(O)c(C=NC2CCCCC2N)c(=O)[nH]c1=O (centres undefined)	10	-6%	-24	-14	-1.1
COc1ccc(C(=O)Nc2cc(OC)c(NC(=O)c3ccco3)cc2OC)cc1	99	2.9µM*	-30	-1	-0.2
COc1cc(NS(=O)(=O)c2ccc(NC(=O)CCC(=O)O)cc2)nc(OC)n1	0	/	/	/	-1.5
CCCCn1c(NCc2ccccc2NS(=O)(=O)c2ccc(C)cc2)nc2ccccc21	-6	3%	-31	-6	2.9
COCC(=O)Nc1cc(C(=O)Nc2cccc(C)c2C)ccc1Cl	38	-4%	-11	-5	0.0
CCN(CC)CCNC(=O)c1ccccn1	-1	-1%	9	2	-1.0
CC1(C)Cc2ccccc2C(NNC(=O)c2ccncc2)=N1	16	-9%	-43	6	-1.9
Cc1c(N(C)S(=O)(=O)c2cc(C(=O)NCC3CCCO3)ccc2Cl)c(=O)n(-c2ccccc2)n1C (centres undefined)	-10	/	/	/	-1.3
O=S(=O)(NC1CCCC1)c1ccccc1Cl	-8	-12%	-84	6	/

The list goes on:
SMILES	Mtb bLac sens	Mtb H37Rv	YopH inh	Arbovirus inh	RecA splice inh	others
CCOc1ccc(-c2nc(C#N)c(N3CCOCC3)o2)cc1	-2	-2%	-23	-8	0.9
COc1ccc(C(=O)NCC(=O)NCCc2c[nH]c3ccccc23)cc1OC	-3	8%	/	-4	-3.3
COc1ccc(Cl)cc1S(=O)(=O)N1CCN(Cc2ccc3c(c2)OCO3)CC1	1	-10%	8	-21	2.1
CCN(CC)Cc1c(O)ccc2c(C)c(CC(=O)OC)c(=O)oc12	-17	-7%	-3	12	-136
COc1ccc2nc(NC(=O)c3cccnc3SC)sc2c1	60	17%	-26	4	1.7
COc1ccc(/C=N/NC(=O)CCc2nc3ccccc3[nH]2)cc1	2	-1%	-17	1	-2.3
COc1ccc(Nc2cc(C)nc3c(C)cccc23)cc1OC	-13	/	/	/	3.4
C=C1CSc2nc(=O)c3c4c(sc3n21)CCC4	45	2%	/	/	/
CCOc1ccccc1CN1CCN(C2CCC2)CC1CCO (centres undefined)	2	/	/	/	-1.4
CCCCC1CCC(c2nc(-c3cccnc3)no2)CC1 (centres undefined)	10	3%	-23	12	19	Arbovirus inh repeat=3
CC(C)(C)C(=O)Nc1cccc2[nH]ncc12	-3	-2%	/	-5	/
O=C(CCSCc1cccc(F)c1)NCCc1ccccc1	3	/	/	/	-1.1
Cc1ccc(Nc2nc(C(=O)NCc3ccco3)cs2)cc1	29	-3%	7	2	3.7
O=c1nc(-c2ccccc2)nc(-c2ccccc2)[nH]1	2	-10%	/	/	-0.2
CC1CCCCN1C(=O)/C(=C\c1ccccc1)c1ccccc1 (centres undefined)	-10	-1%	-19	-12	5.1
COc1cccc(NC(=O)C/C(C)=N/NC(=O)C2CCCCC2)c1	-1	/	/	/	1.1
Cn1c(SCc2nnc3n2CCCCC3)nc2ccccc21	-4	-6%	-28	-1	5.1
CC(C)CC(NC(=O)OC(C)(C)C)C(=O)NC(C(=O)NC(C)C(N)=O)C(C)C (centres undefined)	-7	-3%	-20	0	-1.4
CC(C)Cn1c(N)c(C(=O)COC(=O)Cc2cccs2)c(=O)n(C)c1=O	-14	/	/	/	-1.2
COCCCNC(=O)CN1CCN(Cc2ccc(Cl)cc2)C1=O	0	-7%	-37	8	0.2
COc1ccc(OCC(O)Cn2c(N3CCCCC3)nc3c2c(=O)n(C)c(=O)n3C)cc1 (centres undefined)	-1	/	/	/	-4.6
N#C/C(=C\C=C\c1ccccc1[N+](=O)[O-])C(=O)NCc1ccccc1	31	/	/	/	-6.1

Entries above with a tert-butyl group:
SMILES	Mtb bLac sens	Mtb H37Rv	YopH inh	Arbovirus inh	RecA splice inh	others
CC(C)(C)C1CCc2[nH]c3ccccc3c(=O)c2C1 (centres undefined)	-4	4%	-2	-9	1.8
CC(C)(C)C(=O)Nc1cccc2[nH]ncc12	-3	-2%	/	-5	/
CC(C)CC(NC(=O)OC(C)(C)C)C(=O)NC(C(=O)NC(C)C(N)=O)C(C)C (centres undefined)	-7	-3%	-20	0	-1.4

Filtered by structure: the entries above containing an aryl methoxy group (20)
SMILES	Mtb bLac sens	Mtb H37Rv	YopH inh	Arbovirus inh	RecA splice inh	others
COC(=O)c1ccccc1S(=O)(=O)N(Cc1ccco1)Cc1cc2cc(OC)ccc2[nH]c1=O	-11	-8%	-29	1	-2.5
COc1ccc(/C=C2\Sc3ccc(C(=O)NCc4cccnc4)cc3N(C)C2=O)cc1OC	97	13µM*	/	-23	-0.9
CCOC(=O)C1(Cc2ccc(OC)cc2)CCN(C(=O)C2=CCCC2)CC1	-8	4%	/	0	0.3
COc1cc(SC)ccc1C(=O)Nc1cccc(S(=O)(=O)NC2=NCCCCC2)c1	4	/	/	/	0.1
COc1ccc(-n2nc(C(=O)NCC(=O)N3CCOCC3)c3ccccc3c2=O)cc1Cl	6	/	/	/	0.5
COC(=O)C1=C(C)NC(=O)CC1c1cccc(OC)c1OC (centres undefined)	5	-7%	-28	11	0.3
COc1cc(NS(=O)(=O)c2ccc(NC(=O)COc3ccc(C)cc3)cc2)nc(OC)n1	9	-6%	-38	12	-1.9	Arbovirus inh repeat=6
COc1ccc(CNC(=O)Cn2nc(C(F)(F)F)c3c2CCC3)cc1	-4	-17%	13	-10	-0.7
COc1ccccc1N1CCN(CC(O)COc2ccc3c(c2)CCC3)CC1 (centres undefined)	-10	13%	-16	3	-2.2
COc1cc(NC(=O)c2ccc3c(c2)OCO3)ccc1NC(=O)C(C)C	8	-3%	2	-15	6.1
COc1cc(OC)cc(C(=O)NC2CCCN(Cc3ccc(Cl)cc3)C2)c1 (centres undefined)	6	/	/	/	2.4
COc1ccc(C(=O)Nc2cc(OC)c(NC(=O)c3ccco3)cc2OC)cc1	99	2.9µM*	-30	-1	-0.2
COc1cc(NS(=O)(=O)c2ccc(NC(=O)CCC(=O)O)cc2)nc(OC)n1	0	/	/	/	-1.5
COc1ccc(C(=O)NCC(=O)NCCc2c[nH]c3ccccc23)cc1OC	-3	8%	/	-4	-3.3
COc1ccc(Cl)cc1S(=O)(=O)N1CCN(Cc2ccc3c(c2)OCO3)CC1	1	-10%	8	-21	2.1
COc1ccc2nc(NC(=O)c3cccnc3SC)sc2c1	60	17%	-26	4	1.7
COc1ccc(/C=N/NC(=O)CCc2nc3ccccc3[nH]2)cc1	2	-1%	-17	1	-2.3
COc1ccc(Nc2cc(C)nc3c(C)cccc23)cc1OC	-13	/	/	/	3.4
COc1cccc(NC(=O)C/C(C)=N/NC(=O)C2CCCCC2)c1	-1	/	/	/	1.1
COc1ccc(OCC(O)Cn2c(N3CCCCC3)nc3c2c(=O)n(C)c(=O)n3C)cc1 (centres undefined)	-1	/	/	/	-4.6
